Compound activity as filed in PubChem BioAssay.
Vif TR-FRET: inhibitors of Vif binding to APOBEC3G peptide, primary screen, biochemical, TR-FRET, GST-Vif 1-94, biotin-A3G peptide, dose response retest (AID 1117319); Virion infectivity factor (Human immunodeficiency virus type 1 group M subtype B (isolate …; one-dose inhibition, %; IC50 in µM for titrated hits; TR-FRET GST-Vif / biotin-A3G peptide binding; higher % means a stronger effect; test concentration not given here; strong numbers were not always called active; hit rate 0.57% among 260,000;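 active = above the screen mean plus three standard deviations and confirmed in dose response; inconclusive = results disagree or hit not tested in dose response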;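 also: Vif residues 1-94 fused to GST binding biotinylated APOBEC3G peptide 110-148; 0% = full assay without inhibitor and 100% = GST in place of GST-Vif; retest series ran down from 100 µM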
Calb FLC: C. albicans growth inhibition with fluconazole, primary screen, CaCi-2 strain, Alamar Blue fluorescence. C. albicans CaCi-2 (fluconazole-resistant clinical isolate) + fluconazole, 48 h. growth inhibition, % (concentration not given with the values). hit rate 0.57% among 300,000;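 active = most replicates above 75%; inconclusive = exactly half above 75%; inactive = most below 75%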;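 also: all wells also contain fluconazole at 8 µg/ml as a sub-toxic cotreatment; 0% = median of DMSO wells and 100% = median of geldanamycin control wells; wells of about 8 µL received 7.5 nL stock; the first replicate is given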
RanGTP-Imp inh: inhibitors of RanGTP-importin-beta interaction, primary screen, biochemical, FRET, CFP-Ran, YFP-importin-beta, homogeneous; Ran GTPase (GTP-bound) - importin-beta complex; cell-free CFP-Ran/YFP-importin-beta FRET ratio; inhibition, % (test concentration not listed); hit rate 1.1% among 300,000;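 active = most replicates above 15%; inconclusive = exactly half above 15%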;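 also: 0% = DMSO wells and 100% = Ran loaded with GDP instead of GTP; wells of about 40 µL received 100 nL stock; the first replicate is given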
HNF4A DNA FP: change in binding of human HNF4A to DNA, primary screen, biochemical, fluorescence polarization, FITC-DNA. Hepatocyte nuclear factor 4-alpha (Homo sapiens), P41235. 1 h. activity change, % at 10 µM. hit rate 0.3% among 360,000; in the data active = activity change above about 30%, passing the limit was not always enough;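 also: controls were the assay level and a saturating level of protein; the project sought stronger binding though the title names inhibitors; some compounds called inactive have numbers as strong as hits; positive values seem to mean higher polarization but the record does not say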
Target sequence (P41235 whole entry, looked up): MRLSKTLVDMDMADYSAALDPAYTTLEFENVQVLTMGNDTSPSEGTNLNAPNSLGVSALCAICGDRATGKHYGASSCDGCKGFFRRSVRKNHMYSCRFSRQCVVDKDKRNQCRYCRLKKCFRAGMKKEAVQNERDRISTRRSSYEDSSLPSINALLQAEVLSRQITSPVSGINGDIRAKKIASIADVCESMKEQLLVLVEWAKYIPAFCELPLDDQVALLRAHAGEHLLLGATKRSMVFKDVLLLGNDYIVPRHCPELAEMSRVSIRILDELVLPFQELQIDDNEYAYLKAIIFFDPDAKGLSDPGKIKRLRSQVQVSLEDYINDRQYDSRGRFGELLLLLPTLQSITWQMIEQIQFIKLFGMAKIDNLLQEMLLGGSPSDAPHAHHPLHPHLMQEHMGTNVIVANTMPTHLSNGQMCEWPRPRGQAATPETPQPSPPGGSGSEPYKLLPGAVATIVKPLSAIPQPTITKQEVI
ALR H2O2 inh: inhibitors of human ALR sulfhydryl oxidase, primary screen, biochemical, H2O2 detection, HRP-luminol luminescence, single point; FAD-linked sulfhydryl oxidase ALR (Homo sapiens), P55789; purified ALR, DTT oxidation; inhibition, % (no concentration beside the values); hit rate 3.8% among 290,000; AID 485317, 2010;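 active = mean and each replicate at 75% or more; inconclusive = only one of the two met; inactive = neither met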;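 also: stock transfer was 7.5 nL into about 7.5 µL; 0% = neutral wells and 100% = wells with inactivated enzyme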
Target sequence (P55789 whole entry, looked up): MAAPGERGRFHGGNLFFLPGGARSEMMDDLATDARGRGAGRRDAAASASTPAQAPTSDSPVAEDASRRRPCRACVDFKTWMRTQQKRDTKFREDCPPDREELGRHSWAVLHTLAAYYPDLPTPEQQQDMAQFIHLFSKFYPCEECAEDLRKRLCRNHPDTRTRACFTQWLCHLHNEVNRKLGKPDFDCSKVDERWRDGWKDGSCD
Beta2AR agonist: beta2AR agonists driving receptor internalization, primary screen, cell-based, FAP fluorogen, flow cytometry; Beta-2 adrenergic receptor (Homo sapiens), P07550; Am2.2-beta2AR cells; reference of the scale not given here; response, % (concentration not given with the values); hit rate 0.43% among 340,000;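 active = response above a set limit, near 3 SD of response in nonfluorescent compounds, cut at about 42% in these data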;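 also: stock transfer was 100 nL into about 11 µL; a reference agonist was the positive control; negative values mostly stem from fluorescent compounds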
Target sequence (P07550 whole entry, looked up): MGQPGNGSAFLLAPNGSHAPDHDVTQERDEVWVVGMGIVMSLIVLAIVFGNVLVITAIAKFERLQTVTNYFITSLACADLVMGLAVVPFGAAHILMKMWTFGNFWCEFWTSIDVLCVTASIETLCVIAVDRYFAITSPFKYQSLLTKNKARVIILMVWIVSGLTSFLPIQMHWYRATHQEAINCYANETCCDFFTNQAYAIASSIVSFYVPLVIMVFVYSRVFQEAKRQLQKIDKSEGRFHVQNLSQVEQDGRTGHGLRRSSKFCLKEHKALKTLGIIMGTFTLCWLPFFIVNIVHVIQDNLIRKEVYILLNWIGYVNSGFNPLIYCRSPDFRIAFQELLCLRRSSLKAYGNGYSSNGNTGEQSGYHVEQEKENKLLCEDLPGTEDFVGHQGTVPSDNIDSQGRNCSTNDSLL
LANA-H2A inh: blockers of LANA interaction with H2A/H2B – biochemical, FP readout, HTS, primary screen | Protein LANA1 (Human herpesvirus 8 type P (isolate GK18)), Q9QR71 | cell-free LANA-H2A/H2B peptide, fluorescence polarization | inhibition, % (concentration not given with the values) | hit rate 0.6% among 320,000 | AID 2629, 2010; in the data active = inhibition mostly above about 10%, no sharp cut-off; inactive = mostly below about 6.7%;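 also: stock transfer was 7.5 nL into about 10 µL; 0% = median of vehicle wells and 100% = median of positive control wells; one replicate is shown; the record names a cut of 25% in any replicate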
* hit, by the source's call.

How did CCOC(=O)c1c(N)sc2c1CCS(=O)(=O)C2 do in these assays?
Vif TR-FRET: 31%; Calb FLC: -3; RanGTP-Imp inh: 1.8; HNF4A DNA FP: -3.0; Beta2AR agonist: -2; LANA-H2A inh: -0.8

What do the screens show for `CC(C)COC(=O)N1CC(O)CC1C(=O)O` (centres undefined)?
Vif TR-FRET: 6%; Calb FLC: -9; RanGTP-Imp inh: -0.9; HNF4A DNA FP: 4.3; ALR H2O2 inh: -2; Beta2AR agonist: -1; LANA-H2A inh: 0.8

How did CCOC(=O)c1cc(C(=O)OCC)c2cc(Br)ccc2n1 do in these assays?
Vif TR-FRET: 9%; Calb FLC: -17; RanGTP-Imp inh: -1.4; HNF4A DNA FP: -1.1; ALR H2O2 inh: -6; Beta2AR agonist: -4; LANA-H2A inh: 1.2

How did CCCn1nnnc1NC(=O)c1ccc2ccccc2c1 do in these assays?
Calb FLC: 116*; RanGTP-Imp inh: -2.0; HNF4A DNA FP: 2.7; ALR H2O2 inh: 35; Beta2AR agonist: 12; LANA-H2A inh: -5.8

Results for COc1nc(NC(C)(C)C)nc(Oc2ccc(=O)n(C)n2)n1 ?
Vif TR-FRET: 24%; Calb FLC: -6; RanGTP-Imp inh: 6.2; HNF4A DNA FP: 1.8; ALR H2O2 inh: -9; Beta2AR agonist: 1; LANA-H2A inh: -1.5

Results for Cn1c(=O)c2c(nc(CN3CCC(C(N)=O)CC3)n2CCc2ccccc2)n(C)c1=O ?
Vif TR-FRET: -2%; Calb FLC: -15; RanGTP-Imp inh: -3.3; HNF4A DNA FP: 1.1; ALR H2O2 inh: -53; Beta2AR agonist: -7; LANA-H2A inh: -2.4

How did CCOc1ccc(CCN2CN(CC)CNC2=S)cc1OCC do in these assays?
Vif TR-FRET: 11%; Calb FLC: -4; RanGTP-Imp inh: 6.3; HNF4A DNA FP: 2.6; ALR H2O2 inh: -12; Beta2AR agonist: 6; LANA-H2A inh: -5.3

How did COc1ccccc1C1CN(c2ccccc2)N=C1c1cccs1 (centres undefined) do in these assays?
Vif TR-FRET: -3%; Calb FLC: -3; RanGTP-Imp inh: 2.8; HNF4A DNA FP: 3.1; ALR H2O2 inh: -27; Beta2AR agonist: -5; LANA-H2A inh: -4.1

How did FC(F)(F)c1cc(NCc2cccs2)n2ncnc2n1 do in these assays?
Vif TR-FRET: 32%; Calb FLC: 4; RanGTP-Imp inh: -8.5; HNF4A DNA FP: 1.3; ALR H2O2 inh: -4; Beta2AR agonist: -13; LANA-H2A inh: -5.7

How did Cc1ccc(S(=O)(=O)Nc2ccccc2N=Cc2ccc([N+](=O)[O-])cc2[N+](=O)[O-])cc1 do in these assays?
Vif TR-FRET: 4%; HNF4A DNA FP: 0.9; Beta2AR agonist: -3

What do the screens show for `CC(C)C(=O)Nc1nnc(CSCc2ccccc2F)s1`?
Vif TR-FRET: 3%; Calb FLC: 6; RanGTP-Imp inh: 2.7; HNF4A DNA FP: 0.6; Beta2AR agonist: 4; LANA-H2A inh: -1.9

What do the screens show for `COc1ccc(/C=C/C2=NNC(=O)CC2)cc1`?
Vif TR-FRET: 0%; Calb FLC: 46; RanGTP-Imp inh: -2.2; HNF4A DNA FP: -0.6; ALR H2O2 inh: -3; Beta2AR agonist: 5; LANA-H2A inh: 3.8

How did O=S(=O)(Nc1nc2ccccc2nc1Nc1cccc(S(=O)(=O)N2CCCCC2)c1)c1ccccc1 do in these assays?
Vif TR-FRET: -11%; Calb FLC: 6; RanGTP-Imp inh: 5.0; HNF4A DNA FP: -14; ALR H2O2 inh: 0; Beta2AR agonist: 20; LANA-H2A inh: 5.9

Results for CC(=O)N1CCCc2cc(S(=O)(=O)N(C)Cc3ccccc3)ccc21 ?
Vif TR-FRET: -5%; Calb FLC: -4; RanGTP-Imp inh: 2.2; HNF4A DNA FP: 3.2; ALR H2O2 inh: -1; Beta2AR agonist: -4; LANA-H2A inh: 0.2

What do the screens show for `COc1ccc2[nH]c(C(=O)Nc3ccc(F)cc3Br)cc2c1`?
Vif TR-FRET: -69%; Calb FLC: 4; RanGTP-Imp inh: -4.5; HNF4A DNA FP: 3.9; ALR H2O2 inh: -15; Beta2AR agonist: -8; LANA-H2A inh: -0.3

Results for CC(=O)Nc1ccc(S(=O)(=O)N(C)c2ccc(OCCOc3ccccc3F)cc2)cc1 ?
HNF4A DNA FP: -0.6; ALR H2O2 inh: -5; Beta2AR agonist: -2; LANA-H2A inh: -2.3

Results for Cc1ccc(C)c(N2CCN(C(=O)c3cc(S(=O)(=O)N4CCOCC4)ccc3F)CC2)c1 ?
Vif TR-FRET: 3%; Calb FLC: -9; RanGTP-Imp inh: -3.1; HNF4A DNA FP: -0.4; ALR H2O2 inh: -17; Beta2AR agonist: 8; LANA-H2A inh: 0.7

Results for C[C@]12C=C[C@H](O)CC1=CCC1C2CC[C@@]2(C)C1CCC21OCCO1 (some centres undefined) ?
Vif TR-FRET: 3%; HNF4A DNA FP: 15; ALR H2O2 inh: -11; Beta2AR agonist: -6; LANA-H2A inh: 3.7

What do the screens show for `CC(C)C(C(=O)NC(C)(C)C)N(CCN1CCOCC1)C(=O)CNS(=O)(=O)c1ccccc1` (centres undefined)?
Calb FLC: 32; RanGTP-Imp inh: 3.8; HNF4A DNA FP: 1.5; ALR H2O2 inh: -5; Beta2AR agonist: 3; LANA-H2A inh: 4.6

How did O=C(CCCOc1ccccc1)N1CCc2ccccc2C1 do in these assays?
Vif TR-FRET: 0%; Calb FLC: 17; RanGTP-Imp inh: inconclusive; HNF4A DNA FP: 1.1; ALR H2O2 inh: -5; Beta2AR agonist: -3; LANA-H2A inh: -5.1

What do the screens show for `COc1ccc2c(c1)CCC(C)N2S(=O)(=O)c1ccc(C2CNC(=O)C2)cc1` (centres undefined)?
Vif TR-FRET: -5%; Calb FLC: -8; RanGTP-Imp inh: 3.1; HNF4A DNA FP: -4.0; ALR H2O2 inh: -14; Beta2AR agonist: 3; LANA-H2A inh: 2.5

How did O=S(=O)(Nc1ccccn1)c1ccc(-n2cccn2)cc1 do in these assays?
Calb FLC: -10; RanGTP-Imp inh: 4.5; HNF4A DNA FP: 8.4; ALR H2O2 inh: -2; Beta2AR agonist: -12; LANA-H2A inh: 0.6

How did CCCNC(=O)c1[nH]c(C)c(C(C)=O)c1C do in these assays?
Vif TR-FRET: 6%; Calb FLC: -3; RanGTP-Imp inh: -3.2; HNF4A DNA FP: -1.0; ALR H2O2 inh: -12; Beta2AR agonist: -2; LANA-H2A inh: 3.6

What do the screens show for `COc1ccc2c(c1)CCc1c-2n[nH]c1C(=O)O`?
Vif TR-FRET: 3%; HNF4A DNA FP: -1.5; ALR H2O2 inh: 1; Beta2AR agonist: 1; LANA-H2A inh: 0.0

What do the screens show for `COc1ccc(-n2cc(CNCC3CC(=O)N(C4CC4)C3)c(-c3ccccc3Cl)n2)cc1` (centres undefined)?
Vif TR-FRET: -6%; Calb FLC: -2; RanGTP-Imp inh: 2.7; HNF4A DNA FP: -1.4; ALR H2O2 inh: -11; Beta2AR agonist: -8; LANA-H2A inh: -0.7

How did COc1ccc(C(=O)NCC(=O)O)cc1 do in these assays?
Vif TR-FRET: -5%; Calb FLC: -4; RanGTP-Imp inh: -1.5; HNF4A DNA FP: -0.8; ALR H2O2 inh: -4; Beta2AR agonist: 21; LANA-H2A inh: 2.4

How did CC(C)C(=O)N1CCN(c2ccccc2NC(=O)c2ccc(Br)o2)CC1 do in these assays?
Vif TR-FRET: -5%; HNF4A DNA FP: 2.6; ALR H2O2 inh: 0; Beta2AR agonist: 1; LANA-H2A inh: -0.2

What do the screens show for `CN1CCN(C(=O)C2=C[C@@H](c3ccc(C(F)(F)F)cc3)C[C@@H](OCCCCO)O2)CC1`?
Calb FLC: -4; RanGTP-Imp inh: 2.5; HNF4A DNA FP: -1.1; ALR H2O2 inh: -10; Beta2AR agonist: -1; LANA-H2A inh: -3.7

How did O=C1c2ccccc2C(=O)N1CCCCSc1nnc2c(Cl)cc(Cl)cn12 do in these assays?
Vif TR-FRET: -7%; Calb FLC: 2; RanGTP-Imp inh: 2.9; HNF4A DNA FP: -1.6; ALR H2O2 inh: -8; Beta2AR agonist: -5; LANA-H2A inh: 3.1

How did N/C(CC(=O)Nc1ccc(F)cc1)=N\O do in these assays?
Calb FLC: 0; RanGTP-Imp inh: -1.7; HNF4A DNA FP: -1.3; ALR H2O2 inh: 5; Beta2AR agonist: 8; LANA-H2A inh: 2.6

Results for O=C(c1c(Cl)cccc1Cl)N1CCCCCC1 ?
Vif TR-FRET: -1%; Calb FLC: -3; RanGTP-Imp inh: -0.8; HNF4A DNA FP: -2.8; ALR H2O2 inh: 3; Beta2AR agonist: -5; LANA-H2A inh: -3.1

Results for CCCNC(=O)c1cc(Cl)c(NC(=O)C2=C(C)OCCS2)cc1OC ?
Vif TR-FRET: 11%; Calb FLC: 1; RanGTP-Imp inh: -1.1; HNF4A DNA FP: 1.5; ALR H2O2 inh: -2; Beta2AR agonist: -3; LANA-H2A inh: -3.2

How did Cc1cc(-c2ccc(Cl)cc2)n2ncnc2n1 do in these assays?
Calb FLC: 19; RanGTP-Imp inh: 6.3; HNF4A DNA FP: -0.9; ALR H2O2 inh: -9; Beta2AR agonist: -2; LANA-H2A inh: -4.0

What do the screens show for `CCc1ccc(NC(=O)CSc2nnc(-c3ccco3)o2)cc1`?
Calb FLC: 0; RanGTP-Imp inh: -0.3; HNF4A DNA FP: -0.4; ALR H2O2 inh: 30; Beta2AR agonist: -15; LANA-H2A inh: 2.1

What do the screens show for `CCN(CC)S(=O)(=O)c1cccc(C(=O)NCCCn2ccnc2)c1`?
Vif TR-FRET: 11%; Calb FLC: -2; RanGTP-Imp inh: 0.7; HNF4A DNA FP: 7.2; ALR H2O2 inh: -2; Beta2AR agonist: -2; LANA-H2A inh: 1.1

Results for Cn1c(=O)[nH]c(=O)c2c1nc(Br)n2C/C=N/Nc1ccccc1 ?
Calb FLC: 10; RanGTP-Imp inh: 4.2; HNF4A DNA FP: -1.1; ALR H2O2 inh: 100*; Beta2AR agonist: -4; LANA-H2A inh: 1.1

What do the screens show for `Cc1cccc(Nc2ccc(NCc3ccccc3)nn2)c1`?
Vif TR-FRET: 1%; Calb FLC: -34; RanGTP-Imp inh: -1.8; HNF4A DNA FP: -0.8; ALR H2O2 inh: 37; Beta2AR agonist: 7; LANA-H2A inh: -1.3

What do the screens show for `O=C(NC1CCN(C(=S)Nc2ccc(F)cc2)CC1)C1CCCCC1`?
Calb FLC: 27; RanGTP-Imp inh: -2.0; HNF4A DNA FP: 3.3; ALR H2O2 inh: -6; Beta2AR agonist: -5; LANA-H2A inh: 3.0

How did O=[N+]([O-])c1ccc(-c2cn3c(n2)SCC3)cc1 do in these assays?
Calb FLC: -8; RanGTP-Imp inh: -1.4; HNF4A DNA FP: 5.8; ALR H2O2 inh: 6; Beta2AR agonist: -8; LANA-H2A inh: -2.0

What do the screens show for `Cc1sc(NC(=O)C2C3CCC(O3)C2C(=O)O)nc1-c1ccc(CC(C)C)cc1` (centres undefined)?
Calb FLC: 11; RanGTP-Imp inh: 1.3; HNF4A DNA FP: 1.2; Beta2AR agonist: 7; LANA-H2A inh: 0.0

What do the screens show for `O=C(Nc1nnc(SCC(=O)N2CCCC2)s1)C1CC(=O)N(c2ccc(F)cc2)C1` (centres undefined)?
Vif TR-FRET: 9%; Calb FLC: 1; RanGTP-Imp inh: inconclusive; HNF4A DNA FP: 7.3; ALR H2O2 inh: -3; Beta2AR agonist: -9; LANA-H2A inh: -3.2

This is a random part of the collection, and some 6.3% of all compounds hit somewhere here.
